# Compound activity deposited in PubChem BioAssay by National Center for Advancing Translational Sciences (NCATS).
# Cruzain Triton: qHTS Assay for Promiscuous and Specific Inhibitors of Cruzain (with detergent); Cruzipain (Trypanosoma cruzi), P25779; purified cruzain, Z-FR-AMC fluorescence, 0.01% Triton; Potency, µM, without a hit: max response, negative = inhibition, usual class: inhibitors; 0.43% of 200,000 active; AID 1478, 2009;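 note: plate controls were neutral wells for no effect and buffer without enzyme for full effect; nearly all actives have a fitted effect of over 40% in size; top concentration of the series not given in the record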
# Target sequence (P25779 123-467 limits assumed): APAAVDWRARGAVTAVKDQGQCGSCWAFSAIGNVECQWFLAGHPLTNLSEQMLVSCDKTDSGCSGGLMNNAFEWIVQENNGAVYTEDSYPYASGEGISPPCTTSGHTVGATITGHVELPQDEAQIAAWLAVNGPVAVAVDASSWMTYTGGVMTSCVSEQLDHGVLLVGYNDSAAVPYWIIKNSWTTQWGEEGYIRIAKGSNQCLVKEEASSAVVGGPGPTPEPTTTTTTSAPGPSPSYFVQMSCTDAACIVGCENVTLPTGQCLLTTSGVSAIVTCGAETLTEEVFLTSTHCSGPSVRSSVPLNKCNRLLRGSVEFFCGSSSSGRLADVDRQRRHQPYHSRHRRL
#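 Compounds were screened in titration against cruzain (1.5 nM) with 0.01% Triton X-100 to counter colloidal aggregation. Activity was the AMC fluorescence increase over 60 s after adding 2 uM Z-FR-AMC at pH 5.5.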
# RE007 growth inh: qHTS Assay for Inhibitors of the HIV-1 protein Vpr; S. pombe RE007 Vpr strain, BacTiter-Glo ATP luminescence, 24 h; control for the full effect not named in the record; Potency, µM (doses to about 92.2 µM), for the others: at the top dose activity change, negative = less growth; 0.21% of 360,000 active; active = well fitted falling curve with a large enough effect; inconclusive = small, poorly fitted or top-dose-only effect; inactive = no such curve, though single readings can be large or run the other way;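 note: % is set by controls: 0 for no effect and ±100 for the full control effect; nearly all actives have a fitted effect of over 50% in size; the assay follows cell death caused by Vpr and the record does not say whether a fall means rescue or toxicity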
#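 Fission yeast strain RE007, carrying one chromosomally integrated HIV-1 vpr copy, was seeded at OD 0.01 in PMG+AL medium with 23 nL pinned compound. After 24 h at 30 °C and 99% humidity, viability was read by BacTiter-Glo luminescence.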
# NS1 inh: qHTS Assay for Inhibitors of Influenza NS1 Protein Function; S. cerevisiae slowed by influenza A NS1, growth recovery by OD600; Potency, µM (titrated, usually from 46.1 µM), inactives show at the top dose activity, positive = more growth; 0.4% of 270,000 active; active means well fitted rising curve with a large enough effect; inconclusive means small, poorly fitted or top-dose-only effect; inactive means no such curve, though single readings can be large or run the other way; note: nearly all actives have a fitted effect of over 50% in size
#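 In this qHTS, NS1 from influenza A is expressed in budding yeast, where it slows growth. Cells are switched from glucose to 2% galactose medium (pH 6.0, -URA), treated with compound, and growth recovery is read at OD600.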
# MARV entry inh: qHTS for inhibitors of binding or entry into cells for Marburg Virus; Potency, µM (series often up to 37.8 µM), inactives show at the top dose activity change, negative = inhibition, actives largely listed as inhibitors; Marburg virus pseudotyped entry inhibition, cell reporter; control for the full effect not named in the record; about a third of the inactives were read at about 46 µM; 1.8% of 300,000 active; active = well fitted inhibition curve with a large enough effect; inconclusive = small, poorly fitted or top-dose-only effect, or effect the other way; inactive = flat fitted curve, though single readings scatter; tested in HEK293 cells; about a fifth of its hits are not listed in these tables; note: % is set by controls: 0 for no effect and ±100 for the full control effect; luciferase read-out
# Lassa entry inh: qHTS for Inhibitors of binding or entry into cells for Lassa Virus. Lassa virus pseudotype entry inhibition, cell reporter; control for the full effect not named in the record. Potency, µM (doses to about 37.9 µM), for inactives: top-dose activity change, negative = inhibition, actives largely listed as inhibitors. 1.2% of 300,000 active; active means well fitted inhibition curve with a large enough effect; inconclusive means small, poorly fitted or top-dose-only effect, or effect the other way; inactive means flat fitted curve, though single readings scatter; tested in HEK293 cells; note: % is set by controls: 0 for no effect and ±100 for the full control effect; nearly all actives have a fitted effect of over 50% in size; luciferase read-out
# Cruzain noTriton: qHTS Assay for Promiscuous and Specific Inhibitors of Cruzain (without detergent); purified cruzain, Z-FR-AMC fluorescence, no detergent; Cruzipain (Trypanosoma cruzi), P25779; Potency, µM, without a hit: max response, negative = inhibition, hits mostly inhibitors; 2.3% of 200,000 active; AID 1476, 2009;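 note: plate controls were enzyme without inhibitor for no effect and buffer without enzyme for full effect; nearly all actives have a fitted effect of over 40% in size; top concentration of the series not given in the record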
#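 Detergent-free condition (0.00005% Triton X-100) in acetate buffer pH 5.5 with DTT. 1.5 nM enzyme and compound were pre-mixed 15 min, then 2 uM Z-FR-AMC substrate added; reaction progress from fluorescence change between first and third reads (60 s).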
# SARS PLP yeast: qHTS of Yeast-based Assay for SARS-CoV PLP; S. cerevisiae expressing SARS-CoV PLpro, growth rescue; control for the full effect not named in the record; Potency, µM (highest dose often 32.9 µM), inactives show at the highest dose activity, positive = growth rescue; 0.19% of 330,000 active; active means well fitted rising curve with a large enough effect; inconclusive means small, poorly fitted or top-dose-only effect; inactive means no such curve, though single readings can be large or run the other way; note: 0% is about no effect; nearly all actives have a fitted effect of over 55% in size; growth read by luminescence after 48 h
# StopGo reporter: High Throughput Screening for Foot and Mouth Disease Virus Antivirals; human cells with a luciferase reporter of 2A StopGo recoding; control for the full effect not named in the record; 1.2% of 410,000 active; Potency, µM (doses to about 57.9 µM), for inactives: top-dose signal change, negative = less light; active = well fitted falling curve with a large enough effect; inconclusive = small, poorly fitted or top-dose-only effect; inactive = no such curve, though single readings can be large or run the other way; tested in HEK293T cells; note: % is set by controls: 0 for no effect and ±100 for the full control effect; nearly all actives have a fitted effect of over 45% in size; luciferase light after 4 h
# * = called active by the depositor; ? = inconclusive; · = not tested or not shown; [ ] = another dose, or the depositor's remark. Unless noted, calls come from the whole dose curve; as a rule, active = well fitted curve in the direction sought with a large enough effect; inconclusive = small, poorly fitted or top-dose-only effect, or another doubt; inactive = no such curve, though single readings can be large; an effect the other way counts as inactive or inconclusive. Potency is the fitted concentration of half-maximal effect.
entry	compound	RE007 growth inh	Cruzain noTriton	SARS PLP yeast	NS1 inh
1	Cc1ccc(-c2nc3cc(N)ccc3o2)cc1	-23%	3%	-5%	?
2	Cc1ccc(CNc2ccc(-c3nc(-c4ccco4)no3)cc2[N+](=O)[O-])cc1	·	26%	·	·
3	O=C(CN1C(=O)NC2(CCCCCC2)C1=O)N1CCN(S(=O)(=O)c2ccccc2)CC1	6%	·	-4%	-3%
4	CCOC(=O)Cc1csc(NC(=O)c2ccc(Br)o2)n1	-12%	4%	-1%	-55%
5	CCCCOc1ccc(-c2nnn(C(C)C(=O)OCC)n2)cc1 (stereo not given)	-14%	9%	-15%	-15%
6	O=C1CN=C(c2ccccc2)c2ccccc2N1	-4%	·	1%	3%
7	COCCc1nn2c(=O)cc(COC(=O)c3ccc4c(c3)OCO4)nc2s1	·	6%	·	·
8	CCCCCN(C(=O)CCC(=O)OCC(=O)c1c(C)cc(C)cc1C)c1c(N)n(CCCC)c(=O)[nH]c1=O	-20%	·	-1%	·
9	Cn1c(=O)c2c(-c3ccccc3Cl)n(Cc3ccc(Cl)cc3)cc2n(C)c1=O	·	-6%	·	·
10	COCCn1c(C)c(C(=O)O)sc1=S	14%	-29%	0%	9%
11	CCOC(=O)c1c(NCCN(C)C)c2ccccc2[nH]c1=O	1%	·	1%	4%
12	COC(=O)C1CCN(C(=O)Cn2nnc(-c3ccccc3)n2)CC1	-1%	·	2%	12%
13	Cc1ccc([N+](=O)[O-])c(NC2OC(CO)C(O)C2O)c1 (stereo not given)	-13%	·	3%	·
14	O=C(CCCCCN1C(=O)c2cccc3cccc(c23)C1=O)NC1CCS(=O)(=O)C1 (stereo not given)	-6%	·	0%	0%
15	O=C1CCCCC1Sc1ccc(Cl)cc1[N+](=O)[O-] (stereo not given)	3%	·	·	·

entry	MARV entry inh	Cruzain Triton	StopGo reporter	Lassa entry inh
1	?	2.8%	-34%	?
2	-9%[46.1 µM]	-6.0%	-10%	-4%[46.1 µM]
3	·	·	0%	·
4	8%	-0.5%	9%	6%
5	10%	-5.8%	11%	10%
6	-2%[46.1 µM]	·	-11%	-4%[46.1 µM]
7	·	-1.6%	-7%	3%[46.1 µM]
8	?	·	-19%	?
9	-4%[46.1 µM]	-3.7%	-20%	0%[46.1 µM]
10	25%	-0.6%	-3%	12%
11	·	·	-7%	·
12	36%[46.1 µM]	·	-10%	-13%[46.1 µM]
13	-2%	·	-1%	11%
14	·	·	1%	·
15	13%[46.1 µM]	·	21%	13%[46.1 µM]

# Going on with the list.
entry	compound	RE007 growth inh	Cruzain noTriton	SARS PLP yeast	NS1 inh
16	O=C(NNC(=O)c1cc2ccccc2o1)c1ccncc1	-3%	·	-10%	·
17	Cc1ccc(NC(=S)NNc2ccc(C(=O)O)cc2[N+](=O)[O-])cc1C	-11%	·	·	·
18	Cc1ccc(C(NC(N)=O)c2ccccc2)cc1 (stereo not given)	5%	12%	2%	6%
19	CC(=O)Nc1ccc(OC(=O)N2CCCCC2)cc1	2%	-10%	4%	4%
20	c1ccc(-c2c[n+]3c(n2-c2ccccc2)SCC3)cc1	-19%	·	0%	3%
21	COc1ccc2c(c1)c(=O)c(C(=O)c1ccc(Cl)cc1)cn2CC(=O)Nc1ccc(F)cc1	-6%	10%	18%	12%
22	Cc1cccc2c1N(C(=O)CN1C(=O)c3ccccc3C1=O)C(C)(C)c1ssc(=S)c1-2	0%	13µM*	-7%	28%
23	CCc1cc(=O)oc2cc(OCc3nn[nH]n3)ccc12	1%	2%	-1%	?
24	CCCCC/C=N\NC(=O)Cc1ccc([N+](=O)[O-])cc1	-9%	13%	8%	7%
25	Cn1c(=O)c2c(SCC(=O)N3CCCC3)nc(CC(C)(C)C)nc2n(C)c1=O	-15%	·	?	17%
26	CCOC(=O)c1c(NC(=S)NCC2CCCO2)sc(C)c1C (stereo not given)	-3%	·	5%	·
27	CN(C)C1=C(C#N)C(c2ccccc2)=NP(N(C)C)(N(C)C)=N1	-5%	8%	-14%	-4%
28	N[C@H](CSCc1ccccc1)C(=O)Nc1ccc([N+](=O)[O-])cc1	6%	·	-3%	0%
29	CCOC(=O)c1ccc(N/C=C\C(=O)c2cccc(OC)c2)cc1	-2%	17%	20%	-10%
30	COc1ccc(N2C(=NC(=O)C3CCCCC3)SC3CS(=O)(=O)CC32)cc1 (stereo not given)	-2%	·	0%	-3%

entry	MARV entry inh	Cruzain Triton	StopGo reporter	Lassa entry inh
16	-1%[46.1 µM]	·	24%	0%[46.1 µM]
17	-3%	·	0%	-2%
18	-11%	1.7%	·	-15%
19	8%	0.8%	10%	-6%
20	?	·	?	11%[46.1 µM]
21	-9%	-1.2%	?	14%
22	?	-0.8%	?	0%
23	?	-3.0%	-27%	-5%
24	-6%	3.9%	-21%	0%
25	·	·	-9%	·
26	?	·	-8%	4%[46.1 µM]
27	0%	-0.2%	-4%	-15%
28	-27%[46.1 µM]	·	10%	11%[46.1 µM]
29	?	-9.8%	24%	20%
30	10%[46.1 µM]	·	-9%	6%[46.1 µM]

# (list continues)
entry	compound	RE007 growth inh	Cruzain noTriton	SARS PLP yeast	NS1 inh
31	COc1cccc(-c2nc3c(c(SCC(=O)Nc4cccc(C)c4C)n2)Cc2c(CO)cnc(C)c2O3)c1	·	3%	·	·
32	O=Cc1ccc(-c2cc(Cl)ccc2Cl)[nH]1	-16%	·	-1%	-8%
33	O=[N+]([O-])/C(C(Cl)=C(Cl)Cl)=C(\Nc1ccc(F)cc1)n1cncn1	·	-13%	-11%	-54%
34	CSCc1ccc(C(=O)NC2CC(C)(C)Cc3c2cnn3-c2ccc(F)cc2)o1 (stereo not given)	15%	·	-1%	5%
35	Cc1cc(-n2cnnn2)cc(C)c1S(=O)(=O)NCCOc1ccccc1	7%	·	3%	8%
36	CC(NC(=O)COC(=O)/C=C/c1ccco1)c1ccccc1 (stereo not given)	11%	·	-2%	·
37	COC(=O)c1ccc(NC(=O)CN2CCN(c3ccccn3)CC2)cc1	6%	·	-1%	·
38	O=C(CCCn1c(=O)c2ccccc2n(Cc2cccc(F)c2)c1=O)NCc1ccccc1Cl	·	0%	·	·
39	Cc1cc(C)c(NC(=O)Cn2c(=O)n(Cc3ccc(C(=O)NCc4ccco4)cc3)c(=O)c3sccc32)c(C)c1	·	12%	·	·
40	O=C(CN1C(=O)CSc2ccc(S(=O)(=O)N3CCCCC3)cc21)NCc1cccnc1	3%	-11%	?	14%
41	CCC(C)[C@H](NC(=O)NCc1cccc(OC)c1)C(=O)O (stereo not given in full)	-1%	-3%	3%	3%
42	CCOC(=O)c1cnc(SCC(=O)Nc2nnc(CC)s2)nc1N	4%	-2%	11%	6%
43	O=C(Nc1cccc(C(=O)OCc2cc(=O)n3nc(C4CC4)sc3n2)c1)c1cccc(Cl)c1	·	-13%	·	·
44	C=C(C)COc1ccc(-c2n[nH]c(C)c2-c2ccccc2)c(O)c1	-29%	-11%	·	-106%
45	CCOc1nc(Nc2ccccc2)nc(OCC)n1	-2%	·	-8%	-12%

entry	MARV entry inh	Cruzain Triton	StopGo reporter	Lassa entry inh
31	·	0.3%	1%	?
32	-25%[46.1 µM]	·	-13%	-19%
33	·	-13%	·	·
34	·	·	-16%	·
35	·	·	-10%	·
36	-4%[46.1 µM]	·	10%	-9%[46.1 µM]
37	14%[46.1 µM]	·	-30%	11%[46.1 µM]
38	-14%[46.1 µM]	-0.8%	-7%	-13%[46.1 µM]
39	-27%[46.1 µM]	-4.6%	-3%	?
40	-16%	-2.2%	-17%	2%
41	20%	-2.5%	-1%	-4%
42	-1%	2.6%	-21%	2%
43	·	-0.1%	0%	10%[46.1 µM]
44	?	-6.2%	?	1.8µM*
45	·	·	5%	·

# Continuation:
entry	compound	RE007 growth inh	Cruzain noTriton	SARS PLP yeast	NS1 inh
46	CN(C)c1ccc(P(=O)(OCc2ccccc2)C(O)c2ccccc2)cc1 (stereo not given)	2%	·	0%	1%
47	CCOC(=O)c1ccccc1CN1C(=O)c2ccccc2S1(=O)=O	20%	·	-1%	-4%
48	CCOC(=O)C1CCCN(C2CC(=O)N(c3ccc(C(C)C)cc3)C2=O)C1 (stereo not given)	35µM*	·	-6%	-8%
49	O=C(N/N=C/c1cccc(OC(=O)c2cccc(Br)c2)c1)c1cccnc1	5%	·	-4%	-12%
50	O=C(Nc1ccccc1O)c1ccc(NC(=O)C2CC2)cc1	-16%	·	-7%	7%

entry	MARV entry inh	Cruzain Triton	StopGo reporter	Lassa entry inh
46	3%[46.1 µM]	·	6%	-1%
47	-14%	·	-10%	-7%
48	·	·	-3%	·
49	2%	·	7%	0%
50	?	·	4%	-20%[46.1 µM]

# Arranged by count of non-hydrogen atoms (high to low): some entries from above
entry	compound	RE007 growth inh	Cruzain noTriton	SARS PLP yeast	NS1 inh
43	O=C(Nc1cccc(C(=O)OCc2cc(=O)n3nc(C4CC4)sc3n2)c1)c1cccc(Cl)c1	·	-13%	·	·
48	CCOC(=O)C1CCCN(C2CC(=O)N(c3ccc(C(C)C)cc3)C2=O)C1 (stereo not given)	35µM*	·	-6%	-8%
44	C=C(C)COc1ccc(-c2n[nH]c(C)c2-c2ccccc2)c(O)c1	-29%	-11%	·	-106%
50	O=C(Nc1ccccc1O)c1ccc(NC(=O)C2CC2)cc1	-16%	·	-7%	7%
45	CCOc1nc(Nc2ccccc2)nc(OCC)n1	-2%	·	-8%	-12%

entry	MARV entry inh	Cruzain Triton	StopGo reporter	Lassa entry inh
43	·	-0.1%	0%	10%[46.1 µM]
48	·	·	-3%	·
44	?	-6.2%	?	1.8µM*
50	?	·	4%	-20%[46.1 µM]
45	·	·	5%	·
